miR-21 FLuc = miR-21 reporter, rising signal; 340,000 tested, under 10 active; Potency, µM (highest dose often 38.3 µM), for the others: top-dose reporter change, positive = more light; HeLa miR-21 FLuc reporter, luciferase, 48 h; active = well fitted rising curve with a large enough effect; inconclusive = small, poorly fitted or top-dose-only effect; inactive = no such curve, though single readings can be large or run the other way;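 further: % of control where 0% means no effect; miR-21 action dims this reporter so a rising signal means less miR-21 action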
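HeLa cells stably expressing CMV-driven firefly luciferase with a downstream miR-21 binding sequence, endogenously expressing miR-21, were treated with titrations (up to about 40uM final) for 48 hours at 37 degree Celsius. Luciferase luminescence was read after lysis.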
GLA inh pH 4.5 = inhibitors of human alpha-galactosidase A at pH 4.5 | purified enzyme, 4-MU-alpha-Gal fluorescence, pH 4.5 | 230,000 tested, under 10 active | AID 1467 | activity change, negative = inhibition, % at 105 µM | P06280; inconclusive = small, poorly fitted or top-dose-only inhibition, or a rising curve; inactive = flat fitted curve, though single readings scatter; no compound was filed as active;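 further: 0% = full activity with enzyme and -100% = basal without enzyme; dose as in the result columns while the protocol names 77 µM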
Target sequence (P06280 whole entry, looked up): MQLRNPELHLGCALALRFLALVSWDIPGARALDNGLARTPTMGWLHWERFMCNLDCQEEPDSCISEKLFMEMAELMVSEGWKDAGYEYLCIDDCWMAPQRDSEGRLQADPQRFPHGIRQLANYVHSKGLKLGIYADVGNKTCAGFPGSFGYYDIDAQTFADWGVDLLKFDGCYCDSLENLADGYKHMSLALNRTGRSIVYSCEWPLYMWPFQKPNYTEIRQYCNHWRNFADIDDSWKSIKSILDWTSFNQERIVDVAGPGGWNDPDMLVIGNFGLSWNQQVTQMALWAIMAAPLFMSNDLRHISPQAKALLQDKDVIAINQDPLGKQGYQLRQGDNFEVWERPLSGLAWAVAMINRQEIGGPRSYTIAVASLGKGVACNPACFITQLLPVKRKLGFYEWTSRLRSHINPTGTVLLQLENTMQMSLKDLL
Rango complex inh = prevents formation of the Rango-importin beta complex. Q14974. Rango CFP/YFP FRET sensor + importin beta, 45 min. Potency, µM (series often up to 92.2 µM), for inactives: top-dose inhibition of complex formation. 0.031% of 340,000 active. AID 540263; active = rising FRET ratio curve, often small or poorly fitted; inconclusive = mostly compound fluorescence or quenching in the first reads; inactive = flat curves in all reads;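 further: potency means the concentration at half of the fitted maximal effect; 0% = DMSO wells and 100% = buffer wells lacking importin beta; nearly all actives have a fitted effect of over 15% in size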
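FRET biosensor (snurportin 1 IBB flanked by EYFP and cerulean), 50 nM, with compound 5 min, then 0.125 microM importin beta in PBS, 1 mM DTT, 0.02% Tween-20, 0.1% BSA. CFP/YFP ratio read after 45 min at room temperature; pre-read flags interference.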
Rango dissoc inh = inhibition of RanGTP-driven Rango-importin beta dissociation. AID 540253. Biochemical FRET Rango-importin beta, RanGTP-induced dissociation. O95149+P62826. 0.071% of 340,000 active. Potency, µM (highest dose often 46.1 µM), for inactives: at the top dose activity change, negative = inhibition; active means falling FRET ratio curve, often poorly fitted, with flat reads before Ran was added; inconclusive means other falling curves, or compound fluorescence or quenching; inactive means flat or rising ratio curve;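 further: potency means the concentration at half of the fitted maximal effect; % of control where 0% means no effect; nearly all actives have a fitted effect of over 45% in size; -100% = wells without RanGTP and RCC1; the record marks most hits as doubtful in a second field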
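Two FRET readings bracket the reaction: one 5 min after compound meets Rango–importin beta, another 45 min after RanGTP-RCC1 (0.6 uM Ran, 0.2 uM RCC1, 2 mM GTP) is added. Only the second defines inhibition.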
Active calls of the source: *; & = joins results of further samples; [ ] = dose if it differs, or a comment. Only part of the results is shown; rates above refer to the full screens.

NC(=O)c1ccc(N2CCN(c3ccccc3O)CC2)c([N+](=O)[O-])c1 was read as miR-21 FLuc 13.8%, GLA inh pH 4.5 0.3, Rango complex inh -1.6% and Rango dissoc inh 1.7%.
For Cc1nc(C(=O)NNC(=O)Nc2ccc(Cl)cc2)cs1 the results were miR-21 FLuc 6.6%, GLA inh pH 4.5 -2.5, Rango complex inh 2.8% and Rango dissoc inh 2.1%.
COc1cccc(/C=C2\C(=O)C(=O)c3ccccc32)c1 was read as miR-21 FLuc -39.9%, GLA inh pH 4.5 3.6, Rango complex inh 2.7% and Rango dissoc inh -26.2%.
`COc1ccc(-c2nnc(SCC(=O)N3CCCC3)o2)cc1` gave miR-21 FLuc -52.1%, Rango complex inh -5.9% and Rango dissoc inh -9.0%.
Screening Cc1nnc(SCc2ccccc2)nc1/C=C/NOCc1ccc(Cl)cc1Cl returned miR-21 FLuc -10.1%, GLA inh pH 4.5 2.1, Rango complex inh 3.8% and Rango dissoc inh -5.1%.
Screening Cc1ccc(C)c(N2CCN(C(=O)CCc3nc(-c4ccc(Br)cc4)no3)CC2)c1 returned Rango complex inh 1.0% and Rango dissoc inh -14.2%.
`COC(=O)CNC(c1ccccc1)c1cc(Cl)ccc1NC(=O)c1cccc(Cl)c1` (centres undefined) gave miR-21 FLuc -2.4%, GLA inh pH 4.5 -5.4, Rango complex inh 0.1% and Rango dissoc inh -0.6%.
`N/C(=N\OC(=O)CSc1ccccc1)c1ccncc1` gave miR-21 FLuc -61.2%, Rango complex inh -0.8% and Rango dissoc inh 5.2%.
For CCC1CCCCN1CCNC(=O)C1CCN(S(=O)(=O)c2cccc3nsnc23)CC1 (centres undefined) the results were miR-21 FLuc 0.0%, Rango complex inh -0.6% and Rango dissoc inh -7.4%.
Screening CCc1nnc(NC(=O)Nc2ccccc2OC)s1 returned miR-21 FLuc -52.5%, GLA inh pH 4.5 2.8, Rango complex inh 0.4% and Rango dissoc inh -0.4%.
COC(=O)C1CCN(CC(=O)Nc2cc(Cl)ccc2OC)CC1 was read as miR-21 FLuc 5.3% and GLA inh pH 4.5 1.8.
Screening Cc1ccc(NC(=O)c2ccc(OC(=S)N3CCOCC3)cc2)cc1 returned miR-21 FLuc -32.3%, GLA inh pH 4.5 -13.8, Rango complex inh 0.5% and Rango dissoc inh 0.8%.
`c1ccc(-c2csc(Nc3ncccn3)n2)cc1` gave miR-21 FLuc -72.2%, GLA inh pH 4.5 2.3, Rango complex inh -0.9% and Rango dissoc inh -1.0%.
Screening COc1ccc(N2CCN(c3nc4c(C)cccn4c(=O)c3/C=C(\C#N)C(N)=O)CC2)cc1 returned miR-21 FLuc -9.0%, Rango complex inh inconclusive and Rango dissoc inh inconclusive.
`Cc1cc(C)cc(C(=O)NCC(=O)OCC(=O)NC2CC2)c1` gave Rango complex inh -0.2% and Rango dissoc inh -2.4%.
For CCOc1ccc(C(=O)Nc2ccc(S(=O)(=O)NCC3CCCO3)cc2)cc1OCC (centres undefined) the results were miR-21 FLuc 0.1%, Rango complex inh -1.1% and Rango dissoc inh 10.3%.
COCCn1c(C)cc(C(=O)CSc2nc3ccccc3c(=O)n2C(C)COC)c1C (centres undefined) was read as miR-21 FLuc 5.3%, GLA inh pH 4.5 0.8, Rango complex inh 2.6% and Rango dissoc inh -5.3%.
Screening Cc1cccc(Oc2cc([N+](=O)[O-])cc3c2C(=O)Nc2ccccc2O3)c1 returned miR-21 FLuc -6.5%, GLA inh pH 4.5 -6.6, Rango complex inh 1.2% and Rango dissoc inh -2.5%.
Screening COc1ccc2c(CC(=O)Nc3cccc(S(=O)(=O)N4CCOCC4)c3)coc2c1 returned miR-21 FLuc -5.5%, GLA inh pH 4.5 1.0, Rango complex inh -4.9% and Rango dissoc inh -14.4%.
COc1ccc(NC(=O)N(C)C[C@H]2Oc3ccc(NC(=O)c4ccncc4)cc3C(=O)N([C@H](C)CO)C[C@@H]2C)cc1 was read as Rango complex inh 0.7% and Rango dissoc inh 10.6%.
For CN1C[C@@H]2[C@@H]3C(=O)N(Cc4ccccc4)C(=O)[C@@H]3[C@](Cc3ccccc3)(C1=O)N2C(=O)c1ccc(C(F)(F)F)cc1 the results were Rango complex inh 3.1% and Rango dissoc inh -3.8%.
For COc1cc(NC(=O)c2onc(C)c2Cl)c(OC)cc1Cl the results were miR-21 FLuc -3.5%, GLA inh pH 4.5 2.9, Rango complex inh -0.2% and Rango dissoc inh -6.3%.
Screening Cc1cc(C(=O)Nc2ccc3c(c2)OCCO3)c2ccccc2n1 returned miR-21 FLuc -11.6%, GLA inh pH 4.5 2.2[21.1 µM], Rango complex inh 4.1% and Rango dissoc inh -1.2%.
For CCN(C[C@H]1N[C@@](Cc2ccccc2)(C(=O)OC)[C@H]2C(=O)N(Cc3ccccc3)C(=O)[C@@H]12)S(=O)(=O)c1ccc(F)cc1 the results were Rango complex inh -0.3% and Rango dissoc inh 33.6%.
For CSCC[C@H](NC(=O)c1cccs1)C(=O)N1CCC2(CC1)NCCc1[nH]cnc12 the results were miR-21 FLuc 0.1%, Rango complex inh -3.3% and Rango dissoc inh inconclusive.
Screening CC(=O)NN1C(=O)c2ccccc2NC1c1ccccn1 (centres undefined) returned miR-21 FLuc -6.1%, GLA inh pH 4.5 0.7, Rango complex inh 2.1% and Rango dissoc inh -5.9%.
CCCCCC/C(C=O)=C\c1ccccc1 was read as Rango complex inh 1.4% and Rango dissoc inh 0.6%.
`NNC(=O)COc1ccc(F)cc1` gave miR-21 FLuc -7.1%, GLA inh pH 4.5 3.7, Rango complex inh 0.0% and Rango dissoc inh 7.9%.
Screening Cc1ccc(CSc2nnc(-c3ccncc3)o2)c(C)c1 returned miR-21 FLuc -7.1%, GLA inh pH 4.5 0.1, Rango complex inh -0.6% and Rango dissoc inh 2.6%.
`O=CNC(Cc1ccccc1)C(=O)O` (centres undefined) gave miR-21 FLuc -0.9%, GLA inh pH 4.5 3.7, Rango complex inh 2.6% and Rango dissoc inh 2.5%.
COc1ccc(/C=C2\SC(=S)N(CCC(=O)N3CCCCC3)C2=O)cc1 was read as miR-21 FLuc 5.6%, Rango complex inh -0.4% and Rango dissoc inh 11.6%.
CCN1C(=O)N(CC)C2C1N(C(C)=O)C(=O)N2C(C)=O (centres undefined) was read as miR-21 FLuc 2.7%, GLA inh pH 4.5 -7.0, Rango complex inh 3.2% and Rango dissoc inh 18.8%.
COc1cc(OC)cc(C(=O)Nc2nnc(-c3cccnc3)o2)c1 was read as miR-21 FLuc 3.0%, GLA inh pH 4.5 4.5, Rango complex inh 4.4% and Rango dissoc inh -6.6%.
`COc1ccccc1-c1nnc(NC(=O)c2ccc(S(=O)(=O)N3CCOCC3)cc2)o1` gave miR-21 FLuc 2.3%, Rango complex inh 2.9% and Rango dissoc inh 14.0%.
For COc1ccccc1C(=O)Nc1sc2c(c1C(=O)NCc1ccco1)CCCC2 the results were miR-21 FLuc 1.3%, GLA inh pH 4.5 16.5, Rango complex inh 1.3% and Rango dissoc inh 4.4%.
Cc1sc2nc(COC(=O)C(NC(=O)c3ccc(Cl)cc3Cl)C(C)C)[nH]c(=O)c2c1C (centres undefined) was read as miR-21 FLuc -6.6%, GLA inh pH 4.5 -0.8, Rango complex inh inconclusive and Rango dissoc inh -25.4%.
Screening Cc1cc(C(F)(F)F)nn1CC(=O)NCc1ccccc1 returned miR-21 FLuc -0.2%, GLA inh pH 4.5 -8.4, Rango complex inh -1.0% and Rango dissoc inh -9.1%.
`CCOC(=O)c1ccc(-c2ccc3c(c2)CCC3)nc1C` gave miR-21 FLuc -69.4%, Rango complex inh 0.9% and Rango dissoc inh -16.7%.
Screening COc1ccccc1C(=O)n1nc(-c2cccnc2)nc1NCc1ccccc1 returned miR-21 FLuc -5.1%&-13.1%, GLA inh pH 4.5 3.8, Rango complex inh -0.9% and Rango dissoc inh -4.3%.
Screening CC(=O)Nc1ccc(N(C(=O)CNC(=O)c2ccco2)C(C(=O)NCc2ccco2)c2ccccc2)cc1 (centres undefined) returned miR-21 FLuc 0.3%, GLA inh pH 4.5 0.8, Rango complex inh 0.8% and Rango dissoc inh 2.5%.
`CC(C)NC(=O)c1sc2nc3c(c(-c4cccs4)c2c1N)CN(C)CC3` gave miR-21 FLuc -3.5%, GLA inh pH 4.5 8.1, Rango complex inh inconclusive and Rango dissoc inh -25.1%.
Screening O=C(NCc1ccco1)c1cc2nc(C3CC3)cc(C(F)(F)F)n2n1 returned miR-21 FLuc -15.8%, GLA inh pH 4.5 -15.8, Rango complex inh -1.9% and Rango dissoc inh 21.8%.
Cc1sc(-c2ccccn2)nc1OC(=O)c1cccc(Cl)c1Cl was read as miR-21 FLuc -1.0%, GLA inh pH 4.5 -2.5, Rango complex inh 3.6% and Rango dissoc inh -23.5%.
`Cc1ccc(NC(=O)CN2CCN(CCN=CC3=C(O)CC(c4ccc(C)cc4)CC3=O)CC2)cc1` (centres undefined) gave miR-21 FLuc -0.7%, GLA inh pH 4.5 -4.5, Rango complex inh 0.0% and Rango dissoc inh -22.1%.
For COc1ccc(OC)c(C2=NOC(C(=O)NCc3cccs3)C2)c1 (centres undefined) the results were miR-21 FLuc 24.3%, GLA inh pH 4.5 -8.8, Rango complex inh 0.8% and Rango dissoc inh -0.5%.
For CC(C)c1ccccc1NC(=O)COc1ccc(C(=O)NCCc2ccccc2)cc1 the results were miR-21 FLuc -5.3%, GLA inh pH 4.5 6.7, Rango complex inh 3.4% and Rango dissoc inh 0.8%.
For NS(=O)(=O)c1ccc(-c2ccc(/C=C3\SC(=O)NC3=O)o2)cc1 the results were miR-21 FLuc -1.6%, Rango complex inh inconclusive and Rango dissoc inh inconclusive.
`CC(C)NC(=S)N/N=C/c1cc(Br)ccc1O` gave miR-21 FLuc -0.5%, GLA inh pH 4.5 -0.8, Rango complex inh inconclusive and Rango dissoc inh inconclusive.
For O=C(CCc1ccccc1)NNC(=O)C12CC3CC(CC(C3)C1)C2 the results were miR-21 FLuc -17.0%, GLA inh pH 4.5 -6.5, Rango complex inh 1.9% and Rango dissoc inh -17.1%.
Screening COc1cccc(-n2c(COc3ccccc3C)nnc2SCC(=O)O)c1 returned miR-21 FLuc -1.4%, GLA inh pH 4.5 8.2, Rango complex inh 1.4% and Rango dissoc inh 9.5%.

Quoted at random: 3 compounds from above.
`CC(C)NC(=O)c1sc2nc3c(c(-c4cccs4)c2c1N)CN(C)CC3` gave miR-21 FLuc -3.5%, GLA inh pH 4.5 8.1, Rango complex inh inconclusive and Rango dissoc inh -25.1%.
For COc1ccc(OC)c(C2=NOC(C(=O)NCc3cccs3)C2)c1 (centres undefined) the results were miR-21 FLuc 24.3%, GLA inh pH 4.5 -8.8, Rango complex inh 0.8% and Rango dissoc inh -0.5%.
For O=C(CCc1ccccc1)NNC(=O)C12CC3CC(CC(C3)C1)C2 the results were miR-21 FLuc -17.0%, GLA inh pH 4.5 -6.5, Rango complex inh 1.9% and Rango dissoc inh -17.1%.

Next results follow:
For O=C(Nc1nc(-c2ccco2)c(-c2ccco2)s1)C1CC(=O)N(c2ccc3c(c2)OCCO3)C1 (centres undefined) the results were miR-21 FLuc 1.2%, GLA inh pH 4.5 -5.1, Rango complex inh inconclusive and Rango dissoc inh -8.8%.
Screening C=CCNc1nc(N)c([N+](=O)[O-])c(Nc2ccccc2OC)n1 returned miR-21 FLuc -2.3%, Rango complex inh 2.5% and Rango dissoc inh 22.2%.
CCNC(=O)C(C)Oc1ccc(Cl)cc1Cl (centres undefined) was read as miR-21 FLuc -12.0%, GLA inh pH 4.5 6.4, Rango complex inh -1.9% and Rango dissoc inh -9.6%.
Cc1ccc(C(=O)N2CCC(n3nccc3NC(=O)c3ccccc3C)CC2)cn1 was read as miR-21 FLuc 0.0%, Rango complex inh -0.1% and Rango dissoc inh 0.9%.
COc1cccc(C2CNC3(CCCC(C)C3)c3[nH]c4ccccc4c32)c1OC (centres undefined) was read as miR-21 FLuc 14.1%, Rango complex inh 1.4% and Rango dissoc inh -1.1%.
For CCCNC(=S)Nc1cc2oc3ccccc3c2cc1OC the results were miR-21 FLuc -25.9%, Rango complex inh 0.8% and Rango dissoc inh 10.6%.
Screening CCn1c(N2CCC(C)CC2)nc2c1c(=O)n(C)c(=O)n2C returned miR-21 FLuc -2.0%, GLA inh pH 4.5 2.8, Rango complex inh 0.8% and Rango dissoc inh 11.4%.

Bioassay records: PubChem, National Center for Advancing Translational Sciences (NCATS)
